MgrA-DNA mod – S. aureus MgrA activity modulators, primary screen, biochemical, S. aureus Newman, fluorescence polarization | MgrA-DNA binding | inhibition, %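 (about 10 µg/mL by stock and volumes)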 | 84,000 compounds, 0.13% hits;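 active means above 50% in either of two replicates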;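 further: 0% = protein plus DNA without compound and 100% = DNA alone without protein; higher means less MgrA bound to DNA so lower polarization; one replicate is shown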
S aureus helic – inhibitors of S. aureus replicative helicase, primary screen, biochemical, fluorescence unwinding readout; inhibition, %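 (tested at about 80 µM)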; purified S. aureus helicase, fluorescence unwinding assay; about half of the hits fall short of the stated cut; 120,000 compounds, 0.05% hits; AID 485395, 2010; replicative DNA helicase (DnaC/DnaB), Staphylococcus aureus;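 active means both duplicates at 50% or more, or one of them with a favoured structure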;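 further: 0% = mean of negative control wells and 100% = mean of positive control wells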
An asterisk follows results filed as active; · = not tested or not shown. The list is partial, so the mix of outcomes need not match the whole.

SMILES	MgrA-DNA mod	S aureus helic
CC(C)(CNC(=O)COc1ccccc1Cc1ccccc1)N1CCOCC1	·	-1
CC(=O)Nc1ccccc1OCC(=O)c1cc(C)n(Cc2cccs2)c1C	·	-4
CCCCNC(=O)n1nccc1-c1sc(-c2cccs2)nc1C	·	25
O=S(Cc1ccc2nonc2c1)c1cccs1 (stereo not given)	-0.1	·
COC(=O)c1ccc(/C=C2\SC(N)=NC2=O)cc1	-0.2	-2
Cc1nc(N)oc1C(O)c1ccccc1 (stereo not given)	4.7	·
COc1ccc(N2COC(C)c3nc4ccccc4n3C2)cc1 (stereo not given)	3.3	·
Cc1ccc(S(=O)(=O)N(C)C)cc1	-1.9	21
COc1cc(C=C2C(=O)NC(=S)NC2=O)ccc1OS(=O)(=O)c1ccccc1	9.6	·
C=CCSc1nnc2c(n1)OC(c1ccccc1OCC(=O)O)Nc1ccccc1-2 (stereo not given)	-0.2	7
CCOP(=O)(c1ccccc1)c1ccccc1	0.7	0
Cc1ccc2nc(NC(=O)CN3C(=O)C4C5C=CC(C5)C4C3=O)sc2c1 (stereo not given)	·	15
COC(=O)c1ccc(NC(=O)CSc2ncnc3ccccc23)cc1	·	1
O=S(=O)(c1ccccc1)N1CCCN(c2nccc(C(F)(F)F)n2)CC1	-1.9	·
O=C(COc1ccccc1)Nc1ccc(S(=O)(=O)N2CCCC2)cc1	·	0
COC(=O)C12CCC(C)(c3nc4ccccc4nc31)C2(C)C (stereo not given)	0.1	19
CC1CCC(NC(=O)C2c3ccccc3C(=O)N2CCCN2CCOCC2)CC1 (stereo not given)	·	6
CCN1/C(=C2/SC(=S)N(CC(=O)O)C2=O)C=Cc2cc(OC)ccc21	1.8	6
O=C(CN1C(=O)C2CC=CCC2C1=O)Nc1ccc(-c2nnc3n2CCCCC3)cc1 (stereo not given)	·	12
O=C(NCc1ccccc1CN1CCOCC1)C1CC(=O)N(c2cccc3ccccc23)C1 (stereo not given)	·	3
COc1ccc(OC(=O)c2ccc3snnc3c2)cc1	-3.2	14
COc1ccc(C2=NN(CC(=O)NC3CCCCC3C)C(=O)CC2)cc1 (stereo not given)	·	3
COC(=O)c1noc(C)c1C(=O)/C=C/N(C)C	7.8	·
CCN(CC)c1nc(-c2ccncc2)nc2ccccc12	-3.4	-3
O=C1c2ccc3c4c(ccc(c24)C(=O)N1c1cccc(O)c1)C(=O)N(c1cccc(O)c1)C3=O	-0.5	·
CC(C)N(CC(N)=O)C(=O)Cc1ccc(Cl)cc1	·	-7
Oc1cc2c(cc1C(c1ccc(C(F)(F)F)cc1)N1CCOCC1)OCO2 (stereo not given)	9.6	·
C=C(C)CSc1nnc(SCc2cccc3ccccc23)s1	0.1	9
CC(=O)Nc1cccc(OCc2cc(=O)n3nc(C4CC4)sc3n2)c1	·	1
CN(C)C(CNC(=O)c1oc2ccccc2c1CSc1ncn[nH]1)c1ccco1 (stereo not given)	·	7
Cn1c(=NC(=O)C2CCN(S(=O)(=O)c3cccs3)CC2)sc2ccccc21	·	7
CC1(C)CC(=O)C(C=NCCN2CCNC2=O)=C(O)C1	·	-15
C=CCNc1ccc(C(F)(F)F)cn1	-1.1	-13
CCN1CCN(C(=O)C2=COCCO2)CC1	-1.2	-4
Cc1cccc(OCC(=O)OC2CCOC2=O)c1 (stereo not given)	·	7
COc1ccccc1NC(=O)CSc1ccccc1	2.0	16
CCCC(=O)N1CCN(c2ccc(NC(=O)c3ccco3)cc2Cl)CC1	0.7	-1
O=C1CC(Sc2nnc3ccccn23)C(=O)N1CCc1ccccc1 (stereo not given)	·	11
CCOC(=O)c1cc(C(=O)/C=C/N(C)C)on1	-0.6	·
CCCC(=O)Nc1ccc2oc(-c3ccccc3Br)nc2c1	-0.6	9
Cc1cc(C(=O)OCc2csc(-c3ccccc3)n2)c(C)o1	·	-17
CCOC(=O)c1sc(C2COc3ccccc3O2)nc1C (stereo not given)	-1.9	·
CCCC12CCC(c3ccc(C#N)cc3)(CC1)CC2	1.1	-15
Nc1ccc(C(=O)OCc2nc3cc4ccccc4cc3[nH]2)cc1	2.1	3
Cc1ccccc1S(=O)(=O)Cc1ccc(C(=O)NCCN2CCCC2)o1	·	7
Cc1cccc(CC(=O)n2nc(C)cc2C)c1	-1.2	8
CC(C)c1cc(C(C)C)c(S(=O)(=O)N2CCN(CCO)CC2)c(C(C)C)c1	·	34
CC/C(=N\NS(C)(=O)=O)c1ccccc1	0.7	-5
N=c1oc2ccccc2cc1-c1nnc2n1CCCCC2	-0.3	-14
CCCNC(=O)c1ccc2nc(N3CCCCC3)sc2c1	-0.5	-4

(cont.)
SMILES	MgrA-DNA mod	S aureus helic
CCN1CCCC1CNCc1ccccc1 (stereo not given)	-2.8	3
COCCn1c(SCC(=O)c2ccc(CNC(C)=O)cc2)nc2ccccc21	·	11
Cc1ccc(NC(=O)CN(C)Cn2nc(-c3ccco3)oc2=S)cc1	·	-10
O=C(CCc1nc2ccccc2c(=O)[nH]1)Nc1nccs1	·	4
CC(CN1CCCC1)C(=O)NN (stereo not given)	·	-7
Cc1cccc(C(=O)OCC(=O)N2CC(C)CC(C)C2)c1C (stereo not given)	2.7	-3
O=C(O)C1C2C=CC(C2)C1C(=O)N1CC=C(c2ccccc2)CC1 (stereo not given)	·	14
CCc1ccc(-c2nc(CN3CCC(C(=O)NCc4ccco4)CC3)c(C)o2)cc1	·	14
CC1(C)CC2CC(C)(CN2C(=O)COC(=O)c2cncc(Br)c2)C1 (stereo not given)	·	-17
N#CCC(=O)Nc1cccc2ccccc12	-1.8	3

7 of these compounds, reformatted.
smiles,MgrA-DNA mod,S aureus helic
C=C(C)CSc1nnc(SCc2cccc3ccccc23)s1,0.1,9
O=C(O)C1C2C=CC(C2)C1C(=O)N1CC=C(c2ccccc2)CC1 (stereo not given),·,14
Cc1cccc(CC(=O)n2nc(C)cc2C)c1,-1.2,8
Oc1cc2c(cc1C(c1ccc(C(F)(F)F)cc1)N1CCOCC1)OCO2 (stereo not given),9.6,·
CC(=O)Nc1cccc(OCc2cc(=O)n3nc(C4CC4)sc3n2)c1,·,1
CN(C)C(CNC(=O)c1oc2ccccc2c1CSc1ncn[nH]1)c1ccco1 (stereo not given),·,7
O=C(COc1ccccc1)Nc1ccc(S(=O)(=O)N2CCCC2)cc1,·,0

(cont.)
SMILES	MgrA-DNA mod	S aureus helic
COc1ccc(Cc2c(Cl)ncnc2Cl)cc1	·	3
COc1ccc(C2Nc3ccccc3C(=O)N2c2ccc(C)cc2)cc1COc1ccc(Cl)cc1 (stereo not given)	0.7	·
O=C1c2ccccc2CC1Sc1nnc(-c2ccccn2)c(-c2ccccn2)n1 (stereo not given)	-1.2	3
COc1cc(OC)c(OC)cc1/C=C1\N=C(c2c(-c3ccccc3)noc2C)OC1=O	1.2	·
COc1ccc(NC(=O)c2cc3cc(OC)ccc3oc2=N)cc1	2.2	0
CCOC(=O)c1cnn2c1nc(N1CC(C)CC(C)C1)c1ccccc12 (stereo not given)	0.0	·
Cc1ccc2oc(-c3cccc(N)c3)nc2c1	·	-10
COc1cccc(NC(=S)N(Cc2ccccc2)Cc2ccc(C)o2)c1	5.2	16
O=C(CCc1ccccc1)Nc1nnc(SCc2ccc(F)cc2)s1	·	-12
CCOc1ccc(-c2nc(CSCC(=O)NC3CCCC3)c(C)o2)cc1	-1.9	12

Shown as labelled records: part of the list above
Cc1ccc2oc(-c3cccc(N)c3)nc2c1
  MgrA-DNA mod: ·
  S aureus helic: -10
CCOc1ccc(-c2nc(CSCC(=O)NC3CCCC3)c(C)o2)cc1
  MgrA-DNA mod: -1.9
  S aureus helic: 12
CCOC(=O)c1cnn2c1nc(N1CC(C)CC(C)C1)c1ccccc12 (stereo not given)
  MgrA-DNA mod: 0.0
  S aureus helic: ·
COc1cccc(NC(=S)N(Cc2ccccc2)Cc2ccc(C)o2)c1
  MgrA-DNA mod: 5.2
  S aureus helic: 16

Continuation:
SMILES	MgrA-DNA mod	S aureus helic
COc1ccc(S(=O)(=O)N(CC(=O)NCCSCc2cccc(Cl)c2)c2ccc(C)cc2)cc1OC	0.7	·
Cc1cc(NS(=O)(=O)c2ccc(NC(=S)NC(=O)c3ccccc3)cc2)no1	-0.2	7
O=C1CN(C(=O)COC(=O)Cn2cnc3ccccc3c2=O)c2ccccc2N1	·	-7
FC(F)(F)c1cccc(-c2nc(-c3ccc(-c4ccon4)s3)no2)c1	-1.7	·
N#CC(=C(/N)Sc1ccccc1N)/C(C#N)=C(\N)Sc1ccccc1N	-8.2	·
COc1cc2ccccc2cc1C(=O)Nc1nc2c(s1)CCc1ccccc1-2	0.0	·
O=C(NCCC1=CCCCC1)c1ccc2c(c1)OCCO2	1.3	-9
Cc1ccc(-n2nnnc2SCC(=O)NN2C(=O)NC3(CCCCC3)C2=O)cc1	·	-14
C=CCC(C)(NCCc1ccccc1)c1ccco1 (stereo not given)	-0.7	17
O=C(CSc1nc2scc(-c3cccs3)c2c(=O)[nH]1)c1ccc[nH]1	·	-20
CCOC(=O)c1c(C)n(-c2ccccc2)c2ccc(OC(=O)c3ccc(Cl)cc3Cl)cc12	0.5	·
CSc1nc(Nc2cccc(C(F)(F)F)c2)cc(C(F)(F)F)c1C#N	0.0	·
CN1C(=O)c2ccccc2C(C(=O)Nc2ccccn2)C1c1c[nH]c2ccccc12 (stereo not given)	·	12
CN1C(=O)N(Cc2ncc(-c3ccccc3)o2)C(=O)C1(C)C	·	-2
COc1ccc(C=C2C(=O)OC(C)(C(C)(C)C)OC2=O)cc1 (stereo not given)	12	6
CC(=O)N1CCN(C(=O)C2(NC(=O)Nc3ccc(C)cc3)CCCCC2)CC1	3.2	8
Cc1nnc2ccc(-c3ccc(NS(=O)(=O)c4ccc5c(c4)OCCO5)cc3)nn12	·	6
CCOC(=O)N1CCN(C(=O)C2CCN(S(=O)(=O)N(CC)CC)CC2)CC1	1.9	13
C(=Nc1ccc2ccccc2c1)c1ccncc1	5.2	-6
C=CCNC(=O)c1cnn2c(C(F)(F)F)cc(-c3cccs3)nc12	-1.6	12

Laid out differently: results already given.
Fields – MgrA-DNA mod | S aureus helic
CCOC(=O)c1c(C)n(-c2ccccc2)c2ccc(OC(=O)c3ccc(Cl)cc3Cl)cc12
    0.5 | ·
CSc1nc(Nc2cccc(C(F)(F)F)c2)cc(C(F)(F)F)c1C#N
    0.0 | ·
CN1C(=O)c2ccccc2C(C(=O)Nc2ccccn2)C1c1c[nH]c2ccccc12 (stereo not given)
    · | 12
CN1C(=O)N(Cc2ncc(-c3ccccc3)o2)C(=O)C1(C)C
    · | -2

Continuation:
SMILES	MgrA-DNA mod	S aureus helic
CCOC(=O)C/C(C)=N/c1ncn(-c2ccc(OC)cc2)c1C(=O)c1ccccc1	0.6	6
COc1ccc2oc(=O)c(C(=O)NCCO)cc2c1	-1.6	7
O=c1[nH][nH]c2nnc(-c3ccccc3)c(-c3ccccc3)c12	·	-8
Brc1ccc(OCCSc2nnc(NC3CC3)s2)cc1	·	13
CCOc1cc(C(F)(F)F)c(C(=O)NCc2ccc(Cl)cc2)cn1	-3.6	·
O=C(Cn1ncc2c([nH]c3ccccc32)c1=O)NC1CCCC1	·	-10
Cn1cnnc1SCC(=O)N1c2ccccc2C(C)(c2ccccc2)CC1(C)C (stereo not given)	0.4	·
CC(=O)Nc1ccc(S(=O)(=O)NCC2CC3CCC2C3)cc1 (stereo not given)	-0.8	20
CCOC(=O)c1ccc2nc(NC(=O)CSc3nc(C)cc(=O)[nH]3)sc2c1	·	22
CCOC(=O)c1c(N)c(C#N)c2n1CCCCC2	·	-4
CC(C)(C)NC(=O)c1cccc2c1C(=O)N(C1CCCCC1)C2	·	41
CCNC(=O)N1C2CCC(C2)C1C(=O)OCC (stereo not given)	·	15
CNC(=O)CC12CC3CC(CC(C3)C1)C2	·	13
O=C(Cc1ccccc1)N1CCN(c2ccc(N3CCCCC3)nn2)CC1	·	7
O=[N+]([O-])c1ccc2nc(N3CCCCC3)nc(-c3ccccc3)c2c1	-1.9	·
Cn1[nH]c(CSc2ccccc2)cc1=O	0.4	·
CCCCSC1=C(C#N)C(=O)NCS1	·	-25
CNS(=O)(=O)Cc1ccc([N+](=O)[O-])cc1	-3.5	·
CCOc1ccc(N2C(=O)CC3(CC(C(=O)OCc4ccccc4)=NN3)C2=O)cc1 (stereo not given)	3.0	-2
O=C(Cc1ncc(C(F)(F)F)cc1Cl)NC1CCCC1	-2.2	·
O=C(CCC1CCCCC1)Nc1ncn[nH]1	-1.6	6
Cc1ccc(NC(=O)NC(=O)c2c(-c3snnc3C)noc2C)cc1	·	6
Cc1oc(-c2ccc(C(=O)NCCN3CCOCC3)cc2)nc1CSc1ccccc1	·	21
Oc1ccc2ccccc2c1CN1CCN(Cc2ccc3c(c2)OCO3)CC1	1.4	7
O=C(NCCc1ccccn1)C(F)(F)C1(F)OC(F)(F)C(F)(F)C1(F)F (stereo not given)	-5.9	21
c1ccc(CN2CCCN(c3nc4c(c(NCCN5CCOCC5)n3)CCCC4)CC2)cc1	0.7	-9
CCOC(=O)c1sc2nc(C(F)(F)F)nn2c1C	-2.7	·
Cc1cccc(N2C(N)=C(C#N)C(c3cc(C)ccc3C)C3=C2CCCC3=O)c1 (stereo not given)	2.3	-10
CCOC(=O)Cn1nnnc1CN(Cc1cc2c(C)ccc(C)c2[nH]c1=O)C1CCCCC1	-0.1	-5
COc1ccccc1C(OC(=O)c1cccs1)C(=O)NCc1ccco1 (stereo not given)	-2.4	4
Cc1ccc(S)cc1C	·	-8

Source: PubChem BioAssay (ICCB-Longwood Screening Facility, Harvard Medical School)
